# Assay outcomes deposited in PubChem by several laboratories.
# PKD1 inh = inhibitors of human PKD1 kinase, biochemical, fluorescence polarization; Serine/threonine-protein kinase D1 (Homo sapiens), Q15139; PKD1 kinase fluorescence polarization assay; inhibition, %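 (about 10 µM by stock and volumes)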; 200,000 tested, 0.056% active;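 active means inhibition of 50% or more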;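 further: controls were vehicle for no effect and a reference inhibitor for full effect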
# Target sequence (Q15139 whole entry, looked up): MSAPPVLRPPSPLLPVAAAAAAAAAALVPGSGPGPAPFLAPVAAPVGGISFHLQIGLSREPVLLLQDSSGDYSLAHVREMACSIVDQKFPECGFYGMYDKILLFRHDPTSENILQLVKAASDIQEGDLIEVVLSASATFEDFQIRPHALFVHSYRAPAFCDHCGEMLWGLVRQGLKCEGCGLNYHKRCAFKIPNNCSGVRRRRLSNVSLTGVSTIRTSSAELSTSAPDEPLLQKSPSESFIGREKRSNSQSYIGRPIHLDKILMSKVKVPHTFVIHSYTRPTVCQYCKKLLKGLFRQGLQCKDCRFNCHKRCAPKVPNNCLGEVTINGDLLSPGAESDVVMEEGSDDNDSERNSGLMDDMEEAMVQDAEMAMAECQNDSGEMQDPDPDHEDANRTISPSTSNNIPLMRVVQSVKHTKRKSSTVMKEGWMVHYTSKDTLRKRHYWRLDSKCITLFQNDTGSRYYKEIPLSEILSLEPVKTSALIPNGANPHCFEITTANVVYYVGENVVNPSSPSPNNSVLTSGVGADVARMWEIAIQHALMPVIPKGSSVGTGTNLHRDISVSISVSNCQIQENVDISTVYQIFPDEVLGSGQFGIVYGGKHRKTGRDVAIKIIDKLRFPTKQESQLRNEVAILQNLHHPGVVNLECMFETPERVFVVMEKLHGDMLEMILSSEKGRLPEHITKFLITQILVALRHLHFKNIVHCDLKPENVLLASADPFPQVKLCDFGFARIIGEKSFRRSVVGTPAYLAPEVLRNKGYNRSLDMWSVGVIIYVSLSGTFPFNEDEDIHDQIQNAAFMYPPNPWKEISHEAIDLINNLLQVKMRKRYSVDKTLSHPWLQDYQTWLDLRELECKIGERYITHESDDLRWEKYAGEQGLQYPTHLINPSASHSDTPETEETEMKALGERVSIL
# RGS16-Gao HTS = modulators of RGS16 binding to Galphao, primary screen, biochemical, human proteins, multiplexed bead flow cytometry; binding response (% of control), % at 10 µM; bead-based flow cytometry RGS16-Galphao binding, fluorescence; actives lie on both sides; 220,000 tested, 0.38% active; AID 1441, 2008;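 active means below 25% or above 175%, edge rows of some plates excepted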;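 further: Galphao activated by GDP with aluminum fluoride before binding; 100% = wells without compound and 0% = beads without RGS; some results beyond the cut were filed as inactive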
# INS promoter inh = inhibitors of insulin promoter-driven GFP, primary screen, imaging, TRM-6 cells (human fetal islet line), eGFP reporter, cell count; reporter expression induced with tamoxifen; inhibition, % at 2 µM; 130,000 tested, 0.9% active; AID 1273, 2008;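 active means inhibition above the mean plus 3 SD, with well images judged a real hit on visual review, cut at about 60% in these data, passing the limit was not always enough; inconclusive means inhibition over the cutoff but images rejected on review; inactive means inhibition not above the cutoff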
# GALR2 agonist = GALR2 receptor agonists, primary screen, cell-based; 140,000 tested, 0.48% active; activation, %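 (tested at 5 µM)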; GALR2-expressing cells, agonist activation read-out; Galanin receptor type 2 (Homo sapiens), O43603;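 active means above mean plus 3 SD of all compounds, about 5% in these data, not always enough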;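 further: 0% = vehicle buffer wells and 100% = reference agonist at full effect; tested in CHO reporter cells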
# HSV replic up = enhancers of HSV replication in host cells, fold increase, host cell viability | HSV replication augmentation in cells | maximum fold increase | 220,000 tested, 0.005% active;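 active means peak rise of 1.5-fold or more in the series; inconclusive means self-fluorescent or not available for retest; tested in PC3 cells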;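 further: first round at 10 µM; read as green reporter fluorescence; hits show the peak of a series up to 25 µM; 1 = signal of infected wells without compound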
# INS promoter inh cell count = recorded beside INS promoter inh, whose call it bears; normalized cell count, %; measured here: cell count, toxicity; reference of the scale not given here;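 cells exposed to compound for 48 h; stained nuclei by imaging scaled within each plate; lower means fewer cells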
# HSV replic up primary fold = further read-out of HSV replic up, marked with its call; fold increase; compound at 10 µM; measured here: primary screen fold increase 10 uM; tested in PC3 cells;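 GFP signal in the first replicate; 1 = infected wells without compound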
# The depositor's hits bear a star; i = inactive; u = inconclusive; x = no result given.
SMILES,PKD1 inh,RGS16-Gao HTS,INS promoter inh,INS promoter inh cell count,GALR2 agonist,HSV replic up,HSV replic up primary fold
COc1ccc(CNC(=O)C2CC(c3ccc(F)cc3)=NO2)cc1 (stereo unspecified),-2,100,x,x,-1.3,i,1
CSC1=NSC2=NC(=O)/C(=C/c3coc4ccc(O)cc4c3=O)C(=N)N12,-9,97,-14,85,-0.6,u,x
Cc1ccc(-c2nn(CC(=O)O)c(=O)c3ccccc23)cc1,-7,102,-94,135,-0.8,i,0.88
Cc1ccc(S(=O)(=O)N(C)CC(=O)OCc2nnc(-c3ccccc3)o2)cc1,-2,109,36,101,-0.1,i,1
CCn1c(CCc2ccccc2)n[nH]c1=S,-2,110,x,x,x,i,0.9
CCN(CCCNC(=O)CCNC(=O)Cn1ccc2ccccc2c1=O)c1ccccc1,-8,100,-56,101,-1.2,i,0.89
O=C(Nc1cccnc1)/C(N=Nc1cccnc1)=C(\O)c1ccccc1,-9,99,x,x,1.6,i,1
CCc1cc(C(=O)Cc2nc3ccccc3s2)c(O)cc1OCC(=O)O,x,99,x,x,x,i,0.95
COc1ccc(CNC(=O)c2cc3c(s2)CS(=O)C3)cc1 (stereo unspecified),5,54,x,x,-2.3,i,0.97
COc1cc2c(cc1OC)C(c1ccc(-c3ccccc3Cl)o1)=NCC2,3,100,-46,170,-0.9,i,0.78
COc1ccc(C2CC2/C(C)=N/OC(=O)c2cccs2)cc1 (stereo unspecified),-4,98,-29,135,-0.6,i,0.92
CCn1c(SCC(=O)N=Nc2c(O)[nH]c3ccccc23)nc2ccccc21,-11,98,10,102,0.8,i,0.98
COC(=O)c1cc(CSc2nc3ccccc3[nH]2)oc1C,3,89,x,x,-1.7,i,1.1
CC(=O)Nc1ccc(NC(=S)Nc2ccc(F)cc2)cc1,0,102,x,x,x,i,0.94
O=C(NCCc1ccccn1)C1CCN(S(=O)(=O)c2ccc(Cl)cc2)CC1,-3,97,-59,117,x,i,0.94
CC(SCc1ccccc1)C(=O)N/N=C/c1cccs1 (stereo unspecified),2,233,-38,101,-0.4,i,0.98
COc1ccccc1NS(=O)(=O)c1cc(NC(=O)/C=C/c2cccs2)ccc1N1CCOCC1,-10,37,-15,100,-0.4,i,0.75
CC1CCc2c(sc(NC(=O)C3c4ccccc4Oc4ccccc43)c2C(N)=O)C1 (stereo unspecified),-13,105,9,124,-0.6,i,0.84
CC(C)c1ccc(NC(=O)c2snc3ccc(Cl)cc23)cc1,0,100,23,131,0.5,i,0.63
CC(=O)Cc1nsc(Nc2ccc(C)cc2)n1,-1,101,25,126,x,i,1.1
O=C(c1ccc(NC(=S)NCc2ccco2)cc1)N1CCOCC1,-2,98,-16,137,x,i,0.98
O=C(CC(C(=O)O)c1ccccc1)c1cccs1 (stereo unspecified),x,101,x,x,x,i,0.92
CCOC(=O)c1ccc(Nc2cc(C)nc3ncnn23)cc1,-8,100,x,x,-2.9,i,0.79
CCOC(=O)C(=O)Nc1ccccc1C#N,-2,107,-100,116,-0.9,i,0.93
CC(=O)Nc1ccc(NS(=O)(=O)C(F)(F)F)cc1,-7,110,-4,170,-1.3,i,0.9
CCSc1nnc(NC(=O)C(C)(C)C)s1,-12,156,77*,117*,-1.1,i,0.91
CCOc1ccccc1NC(=O)CCCN1C(=S)NC(C)(C)CC1C (stereo unspecified),-6,110,24,122,-0.7,i,0.89
C=C(C)c1cccc(C(C)(C)NC(=O)Nc2ccc(C(C)=O)cc2)c1,0,148,-6,35,-2.4,i,1
Cc1ccc(O)c(C(=O)c2cnn(C(=O)COc3ccc(Cl)cc3)c2)c1,-1,95,x,x,-0.8,i,0.8
OCCC1CN(Cc2cccc(-c3ccco3)c2)CCN1Cc1ccsc1 (stereo unspecified),-1,106,0,128,x,i,1
CNC(=O)CSc1nnc(-c2ccc3c(c2)OCO3)n1C,19,102,-22,178,x,i,1
O=C(c1cccc(Cl)c1)N1CCn2c1nc1ccccc12,-7,108,46,104,x,i,0.94
C=CCNC(=S)N(CC)c1cccc2ccccc12,4,111,x,x,x,i,1
Clc1cc(Cl)cc(CN2CCSCC2)c1,x,96,x,x,x,i,1
O=C(NC(NC1CCS(=O)(=O)C1)C(Cl)(Cl)Cl)c1ccc(Br)cc1 (stereo unspecified),-3,99,-13,73,-1.2,i,0.92
O=C(Nc1c2c(nc3c1CCC3)CCCC2)c1ccccn1,-6,98,27,143,-1.0,i,1
Cc1ccc(-c2nnn(CC(=O)NCCC3=CCCCC3)n2)cc1,-7,98,60,148,-2.3,i,1
CC1(C)Cc2c(c(N3CCCC3)[nH]c(=S)c2C#N)CO1,-1,-89,-10,156,-2.1,x,x
C=CCNC(=O)NC(=O)c1csc([N+](=O)[O-])c1,x,104,x,x,x,i,0.96
COc1cc2c(cc1OC)CN(CC(=O)Nc1ccc(Cl)c(S(=O)(=O)N(C)C)c1)CC2,3,87,-17,121,x,i,0.8
O=C1CS(=O)CN1c1ccc(Oc2ccccc2)cc1 (stereo unspecified),4,104,-8,82,x,i,0.73
COc1ccc(Cl)cc1NC(=O)c1cnc2sccn2c1=O,0,101,x,x,0.7,i,0.93
Cc1ccsc1/C=N/NC(=O)Cn1nc(C)c([N+](=O)[O-])c1C,x,98,x,x,x,i,0.97
O=C(/C=C/Nc1ccccc1OC(F)(F)F)C(F)(F)F,-3,115,46,76,-1.9,i,0.97
COc1ccc(Br)cc1C1SCCN1S(C)(=O)=O (stereo unspecified),8,111,x,x,-0.4,i,1
CCOn1c(=O)c(-c2cc3ccccc3o2)[n+]([O-])c2ccccc21,0,102,-39,100,0.0,i,1.1
CC1CCN(C(=S)NCCc2ccccc2)CC1,-12,99,-32,87,-0.1,i,1.1
c1ccc(CN2CCN(c3nc(N4CCOCC4)c4ccccc4n3)CC2)cc1,-3,x,13,153,-1.1,i,1
Cc1nc(N2CCN(Cc3ccc4c(c3)OCO4)CC2)nc2c1C(=O)CC(c1ccco1)C2 (stereo unspecified),2,115,x,x,-4.4,i,0.98
CC(C)Sc1nc2c(c(=O)n1C)SC(C)C2 (stereo unspecified),-4,101,-40,90,-0.8,i,1
# Continuation:
SMILES,PKD1 inh,RGS16-Gao HTS,INS promoter inh,INS promoter inh cell count,GALR2 agonist,HSV replic up,HSV replic up primary fold
CCN1C(=O)c2ccccc2S(=O)c2ccc(C(=O)N3CCCC3)cc21 (stereo unspecified),-15,115,x,x,-0.7,i,0.87
CCOc1ccc(S(=O)(=O)N(C)C)cc1-c1nc2c(C(C)(C)C)nn(C)c2c(=O)[nH]1,-7,73,20,90,-2.0,i,0.75
C=CCn1c(=O)/c(=C2/Sc3ccccc3N2CC)s/c1=C1/C(=O)NN=C1C,0,105,-388,117,x,u,x
CCOC(=O)C(Cc1ccc(O)cc1)NC(=O)CNC(=O)C1CCCN1C(=O)OC(C)(C)C (stereo unspecified),6,101,x,x,x,i,0.94
Cc1sc2nc(CN3CCCC3)nc(Cl)c2c1C,-9,108,4,57,-0.3,i,0.95
O=C(Oc1cccnc1)c1ccc([N+](=O)[O-])cc1Cl,-8,102,-43,129,x,i,0.89
COc1cc(/C=C2\SC(=O)NC2=O)ccc1Oc1ccc([N+](=O)[O-])cn1,x,112,x,x,x,i,1.1
O=C(O)c1ccc(Br)cn1,1,102,53,129,x,i,0.98
COc1ccccc1N1C(=O)C2CC(C)=C(C)CC2C1=O (stereo unspecified),-3,106,-36,151,-0.7,i,1
COCCCNC(=O)CCCn1c(=O)c2ccccc2n(CC(=O)Nc2c(C)cccc2C)c1=O,-11,103,x,x,0.3,i,0.92

# 14 structures out of the list, sorted by formula weight, lowest first.
SMILES,PKD1 inh,RGS16-Gao HTS,INS promoter inh,INS promoter inh cell count,GALR2 agonist,HSV replic up,HSV replic up primary fold
O=C(O)c1ccc(Br)cn1,1,102,53,129,x,i,0.98
CC(C)Sc1nc2c(c(=O)n1C)SC(C)C2 (stereo unspecified),-4,101,-40,90,-0.8,i,1
CC1CCN(C(=S)NCCc2ccccc2)CC1,-12,99,-32,87,-0.1,i,1.1
O=C(Oc1cccnc1)c1ccc([N+](=O)[O-])cc1Cl,-8,102,-43,129,x,i,0.89
O=C(/C=C/Nc1ccccc1OC(F)(F)F)C(F)(F)F,-3,115,46,76,-1.9,i,0.97
CCOn1c(=O)c(-c2cc3ccccc3o2)[n+]([O-])c2ccccc21,0,102,-39,100,0.0,i,1.1
COc1ccc(Br)cc1C1SCCN1S(C)(=O)=O (stereo unspecified),8,111,x,x,-0.4,i,1
CCN1C(=O)c2ccccc2S(=O)c2ccc(C(=O)N3CCCC3)cc21 (stereo unspecified),-15,115,x,x,-0.7,i,0.87
c1ccc(CN2CCN(c3nc(N4CCOCC4)c4ccccc4n3)CC2)cc1,-3,x,13,153,-1.1,i,1
C=CCn1c(=O)/c(=C2/Sc3ccccc3N2CC)s/c1=C1/C(=O)NN=C1C,0,105,-388,117,x,u,x
CCOc1ccc(S(=O)(=O)N(C)C)cc1-c1nc2c(C(C)(C)C)nn(C)c2c(=O)[nH]1,-7,73,20,90,-2.0,i,0.75
Cc1nc(N2CCN(Cc3ccc4c(c3)OCO4)CC2)nc2c1C(=O)CC(c1ccco1)C2 (stereo unspecified),2,115,x,x,-4.4,i,0.98
CCOC(=O)C(Cc1ccc(O)cc1)NC(=O)CNC(=O)C1CCCN1C(=O)OC(C)(C)C (stereo unspecified),6,101,x,x,x,i,0.94
COCCCNC(=O)CCCn1c(=O)c2ccccc2n(CC(=O)Nc2c(C)cccc2C)c1=O,-11,103,x,x,0.3,i,0.92

# Other results
SMILES,PKD1 inh,RGS16-Gao HTS,INS promoter inh,INS promoter inh cell count,GALR2 agonist,HSV replic up,HSV replic up primary fold
COc1cc(C)c(C(C)C)cc1S(=O)(=O)N1CCOCC1,2,104,-12,82,-1.1,i,0.91
CC(C)NC(=O)COC(=O)CNC(=O)c1cc(Cl)cc([N+](=O)[O-])c1,-1,102,x,x,-1.5,i,0.93
COc1ccc(S(=O)(=O)Cc2ccc(C(=O)N3CCOCC3)o2)cc1,-5,96,-29,112,0.6,i,1.1
Cn1cccc1CNC(=O)Nc1ccccc1,-3,97,55,111,-1.2,i,1.1
Cn1c(-n2c(CCCN3C(=O)c4ccccc4C3=O)nc3ccccc3c2=O)nc2ccccc21,-3,725,40,166,-1.7,i,0.87
CC(Sc1nnnn1C)C(=O)Nc1ccccc1 (stereo unspecified),-6,53,7,86,x,i,0.95
CC(=O)NC1(c2cccc(F)c2)CCN(CC(=O)NC2CCCCC2)CC1,12,99,x,x,-0.6,i,0.99
COC(=O)CC1(c2ccccc2)C(=O)c2ccccc2C1=O,-2,103,-14,109,-1.4,i,0.9
Cc1ccc(NS(=O)(=O)c2ccc(Cl)c(NC(=S)NC(=O)C3CCCCC3)c2)cc1Cl,-3,36,22,115,0.5,i,0.89
COc1ccccc1OCC(=O)NNC(=O)c1cccs1,-7,107,4,104,-0.7,i,0.95
Cc1cc(NC(=O)C2CC=CCC2C(=O)O)no1 (stereo unspecified),-3,97,62,76,-2.7,i,0.95
COc1ccc(-c2nc(C)sc2CC(=O)O)cc1,6,105,0,43,-0.6,i,0.93
CCOc1ccccc1NC(=O)C1CCCN1C(=O)OCc1ccccc1 (stereo unspecified),-3,209,x,x,-1.7,i,0.95
O=S(=O)(Nc1cc(Sc2ncn[nH]2)c(O)c2ccccc12)c1ccccc1,2,58,-233,43,x,i,1.1
O=C(NC(=S)Nc1ccc(-c2ccc(CO)o2)cc1)c1cccs1,-3,99,14,100,x,i,1.2
OCCOCCNc1ncnc2c1cnn2-c1ccc(Cl)cc1,-1,99,x,x,-1.8,i,0.75
CC12CCC(C(=O)NCc3ccc4c(c3)OCO4)(CC1=O)C2(C)C (stereo unspecified),-3,105,14,89,-0.5,i,0.91
Cc1[nH]c2ccccc2c1C(=O)CSC(=S)N(C)C1CCCCC1,-7,72,-43,63,-1.2,i,0.82
C/C(=N\NC(=O)COc1ccc(C)cc1C(C)C)c1cc2ccccc2o1,-9,100,x,x,-0.7,i,0.99
Cc1cccc(C2c3[nH]c4ccccc4c3CCN2C(=O)c2cc3c([nH]c2=O)CCCC3)n1 (stereo unspecified),-6,112,65,54,x,i,0.99
